Screening data (PubChem BioAssay)
LANA-H2B inh: blocks KSHV LANA binding to histone H2A/H2B; Q9QR71; cell-free LANA-H2A/H2B peptide, fluorescence polarization; inhibition, % (test concentration not listed); hit rate 0.6% among 320,000; AID 2629; in the data active = inhibition mostly above about 10%, no sharp cut-off; inactive = mostly below about 6.7%;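 also: stock transfer was 7.5 nL into about 10 µL; 0% = median of vehicle wells and 100% = median of positive control wells; one replicate is shown; the record names a cut of 25% in any replicate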
RanGTP-Imp inh: disruptors of Ran-importin-beta complex formation – biochemical, FRET, CFP-Ran, YFP-importin-beta, homogeneous, primary screen; inhibition, % (no concentration beside the values); cell-free CFP-Ran/YFP-importin-beta FRET ratio; AID 2216; hit rate 1.1% among 300,000;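 active = most replicates above 15%; inconclusive = exactly half above 15%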;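 also: 0% = DMSO wells and 100% = Ran loaded with GDP instead of GTP; wells of about 40 µL received 100 nL stock; the first replicate is given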
B2AR ag: agonists of human beta-2 adrenergic receptor inducing internalization; P07550; Am2.2-beta2AR cells, FAP receptor internalization, flow cytometry; reference of the scale not given here; response, % (concentration not given with the values); hit rate 0.43% among 340,000;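 active = response above a set limit, near 3 SD of response in nonfluorescent compounds, cut at about 42% in these data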;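 also: stock transfer was 100 nL into about 11 µL; a reference agonist was the positive control; negative values mostly stem from fluorescent compounds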
Target sequence (P07550 whole entry, looked up): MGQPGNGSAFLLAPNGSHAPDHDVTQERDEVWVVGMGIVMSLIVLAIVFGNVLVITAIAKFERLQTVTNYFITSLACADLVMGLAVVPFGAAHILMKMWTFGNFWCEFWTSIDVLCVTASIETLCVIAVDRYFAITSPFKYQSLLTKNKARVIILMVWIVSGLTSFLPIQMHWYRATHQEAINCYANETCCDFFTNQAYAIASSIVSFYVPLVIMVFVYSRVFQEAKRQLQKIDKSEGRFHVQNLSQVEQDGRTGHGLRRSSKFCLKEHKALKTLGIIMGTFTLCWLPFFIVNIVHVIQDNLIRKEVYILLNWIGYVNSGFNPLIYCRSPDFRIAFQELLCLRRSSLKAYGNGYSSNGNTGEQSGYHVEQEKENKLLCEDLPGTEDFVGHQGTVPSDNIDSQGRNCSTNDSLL
T cruzi repl: T. cruzi replication inhibition. T. cruzi beta-gal in NIH3T3, luminescence, 90 h. inhibition, % (test concentration not listed). hit rate 1.4% among 300,000. AID 1885;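 active = mean inhibition across valid replicates above about 55%, limit read from the data; inconclusive = mean below that limit but half or more replicates reach it; inactive = mean below it, under half of replicates reach it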;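 also: signal also drops with host cell toxicity which is not excluded here; 0% = plate median of DMSO wells and 100% = zero luminescence signal; higher percent means less beta-gal luminescence so fewer parasites; stock transfer was 50 nL into about 50 µL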
UCH37 DUB inh: blocks the human deubiquitinase UCH37; Q9Y5K5; hit rate 0.33% among 330,000; inhibition, % (no concentration beside the values); purified proteasome/UCH37, Ub-AMC cleavage fluorescence;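 active = mean of two replicates above 20%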;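 also: 0% = compound-free wells with enzyme and 100% = wells lacking proteasome; stock transfer was 100 nL into about 20 µL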
Target sequence (Q9Y5K5 whole entry, looked up): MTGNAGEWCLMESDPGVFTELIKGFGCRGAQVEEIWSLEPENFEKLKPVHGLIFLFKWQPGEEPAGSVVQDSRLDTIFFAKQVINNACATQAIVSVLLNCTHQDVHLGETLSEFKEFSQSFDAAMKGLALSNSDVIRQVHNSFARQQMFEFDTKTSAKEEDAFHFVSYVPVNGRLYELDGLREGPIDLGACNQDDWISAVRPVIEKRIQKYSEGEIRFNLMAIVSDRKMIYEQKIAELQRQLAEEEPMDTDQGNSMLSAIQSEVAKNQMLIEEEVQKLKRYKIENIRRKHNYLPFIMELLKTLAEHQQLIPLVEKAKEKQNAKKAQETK
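Material: Human UCH37 enzyme supplied as purified proteasome complex | Schedule: 30 min preincubation with enzyme, 25 min cleavage at room temperature | Detection: AMC fluorescence 355/460 nm | Measure: % inhibition of Ub-AMC cleavage fluorescence | Controls: Wells without proteasome as full block, compound-free enzyme plus substrate as uninhibited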
Calb FLC: C. albicans growth modulation with fluconazole | C. albicans CaCi-2 (fluconazole-resistant clinical isolate) + fluconazole, Alamar Blue growth, 48 h | growth inhibition, % (test concentration not listed) | hit rate 0.57% among 300,000 | AID 1979;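 active = most replicates above 75%; inconclusive = exactly half above 75%; inactive = most below 75%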;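 also: all wells also contain fluconazole at 8 µg/ml as a sub-toxic cotreatment; 0% = median of DMSO wells and 100% = median of geldanamycin control wells; wells of about 8 µL received 7.5 nL stock; the first replicate is given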
Beta apoptosis: blocks beta cell apoptosis; INS-1E cytokine-induced death, ATP luminescence, 48 h; percent of positive-control rescue, neutral wells zero; protection from apoptosis, % (no concentration beside the values); hit rate 0.8% among 300,000;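 active = all replicates at 75% or more, or half of them and the mean; inconclusive = half reach 75% but not the mean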;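 also: 0% = cytokine-treated negative control wells and 100% = positive control rescue; higher means more ATP so stronger rescue from cytokine killing; wells of about 40 µL received 100 nL stock; the first replicate is given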
Bfl-1 A1 inh: inhibitors of the anti-apoptotic protein A1, read as caspase activation; hit rate 0.066% among 330,000; caspase activation, % (test concentration not listed); MEF A1-2A-BIM cells, Caspase-Glo 3/7 luminescence, 3 h; percent of clofoctol response, vehicle zero;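 active = over half of replicate activation scores above 10%, or exactly half above 10 with the replicate mean above 10; inconclusive = replicate mean below 10 yet half the replicates above 10; inactive = over half of replicates below 10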;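 also: wells of about 30 µL received 50 nL stock; many hits fall short of the cut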
The depositor's hits bear a star; i = inactive; ? = inconclusive; . = no result given.

SMILES	LANA-H2B inh	RanGTP-Imp inh	B2AR ag	T cruzi repl	UCH37 DUB inh	Calb FLC	Beta apoptosis	Bfl-1 A1 inh
COCCOCC(=O)Nc1ccc(S(=O)(=O)Nc2cc(C)nc(C)n2)cc1	1.3	-3.8	5	11	5.8	-3	.	0.4
O=C(C1CCN(c2nnc(-n3cccc3)s2)CC1)N1CCc2ccccc2C1	-1.4	-0.9	-9	8	2.7	1	-3	0.3
O=C(C1CC1)N1CCc2cc(S(=O)(=O)N3CCCc4ccccc43)ccc21	0.0	-4.4	12	29	5.8	-2	13	2.1
N#C/C(=C\Nc1ccccn1)S(=O)(=O)c1ccc(Cl)cc1	-4.6	-4.1	-5	-42	2.0	-3	-5	-0.3
Cc1nnn(C23CC4CC(CC(CC(=O)Nc5ccc(C)c(C)c5)(C4)C2)C3)n1	0.7	-0.3	3	16	2.4	15	2	0.0
CCOc1ccc(NC(=O)CS(=O)(=O)c2cn(CC)c3ccccc23)cc1	-2.8	-3.9	-1	-6	-0.2	-7	-2	-0.3
Cc1ccc2sc(NNC(=O)c3ccc4c(c3)OCCO4)nc2c1C	0.0	0.7	8	-18	5.9	-24	0	-0.2
COc1ccc(/C=C/C(=O)Nc2sc3c(c2C(=O)NCc2cccnc2)CCCC3)cc1	-1.0	-3.0	31	41	-4.6	30	9	0.4
CCOC(=O)CSc1nc2ccccc2c(=O)n1CCC(=O)NCCc1ccc(OC)c(OC)c1	-0.3	2.3	-1	-3	8.1	-14	-2	-1.1
Cc1sc(NC(=S)NC(=O)c2cccs2)nc1-c1ccc(C(C)C)cc1	-7.2	.	10	-15	6.2	-6	0	1.4
Cn1cc(CNC(=O)COc2ccc(Cl)cc2Cl)cn1	-2.5	2.8	-11	-17	4.2	-4	-5	-0.2
Cn1nc(-c2ccc(OCC(=O)Nc3ccccc3)cc2)c2ccccc2c1=O	-0.8	1.9	-7	-5	2.8	-9	-6	0.9
O=C(NC(=S)N1CCN(Cc2ccc3c(c2)OCO3)CC1)c1ccc(Cl)cc1	2.7	?	0	6	0.3	-34	5	0.9
Cc1cc(NC(=O)CN2C(=O)NC(C)(c3ccc(OC(F)F)cc3)C2=O)no1 (configuration not stated)	3.5	-1.6	2	-11	3.9	-9	5	-0.3
O=C(NCC1CCCCC1)c1ccccc1[N+](=O)[O-]	-0.4	1.8	0	-18	2.7	-4	-6	1.9
COCc1c(C(=O)N/N=C\c2ccccn2)nnn1-c1nonc1N	1.7	1.0	3	-7	.	1	-14	-0.4
CC(C)(C)C(=O)NCCN1C(=O)S/C(=C\c2ccc([N+](=O)[O-])cc2)C1=O	0.2	-1.0	-4	24	3.2	-16	-13	0.1
O=C(O)C(c1ccccc1)N1C(=O)/C(=C\c2ccc(O)c(O)c2)SC1=S (configuration not stated)	0.6	-2.3	6	-15	11	1	1	-0.6
Cn1c(C2CCCCC2)nc2cc(N)ccc21	1.5	0.7	-1	29	3.7	25	-5	-0.6
CCOc1cc(/C=N/Nc2nc(N3CCCC3)nc(N3CCCC3)n2)ccc1O	-4.5	?	29	6	.	-2	4	0.7
CCc1sc(C(C2C(=O)CC(C)(C)CC2=O)C2C(=O)CC(C)(C)CC2=O)cc1[N+](=O)[O-]	-3.2	-2.0	22	-13	3.5	0	6	-1.2
COC(=O)c1ccc(N=Cc2c(-c3ccccc3)[nH][nH]c2=O)cc1	-2.2	?	-5	1	3.0	-1	-10	0.8
COc1ccc(Nc2nc(C)nc3c2oc2ccccc23)c(OC)c1	7.4	0.8	24	2	i	7	15	0.4
O=C(OCC(=O)N1CCOCC1)c1ccc(Cl)c(S(=O)(=O)N2CCc3ccccc32)c1	-4.9	.	-5	.	1.3	.	-5	-0.8
Cc1ccc(NC(=O)COC(=O)c2cc(Cl)ccc2Cl)c(Br)c1	-8.2	-2.3	-3	-5	.	1	7	-0.1
O=C(COc1ccc(N2CC(C(=O)O)CC2=O)cc1)Nc1cccc(C(F)(F)F)c1 (configuration not stated)	-0.5	-0.1	-1	-8	0.7	-13	0	0.8
Cc1c(OCC(=O)N2CCC(C(=O)NCCCC(=O)O)CC2)ccc2c1oc(=O)c1ccccc12	-4.7	-0.7	0	-9	i	-14	-4	-0.9
CC(=O)NC1C(Oc2ccc(C)cc2)OC2COC(c3ccco3)OC2C1O (configuration not stated)	1.8	2.3	5	-3	2.2	0	-1	-0.2
CCOc1ccc(S(=O)(=O)NCc2ccc(C)cc2)c2cccnc12	1.7	?	-16	-19	-8.7	-3	-2	0.2
Cc1cc(NC(=O)CSc2nnc(CNC(=O)c3ccc(F)cc3)o2)no1	-2.4	.	-6	-3	0.2	.	-5	0.8
CC1(C)CC(=O)c2cnc3c(C#N)cnn3c2C1	1.6	115*	-7	-9	-5.8	22	.	1.2
CC1CCC(NC(=O)CCNC(=O)c2ccc(Br)cc2)CC1 (configuration not stated)	-3.4	3.4	-17	-4	1.6	1	-5	1.3
COc1ccc(CCN2C(=O)CC(N3CCN(C/C=C/c4ccccc4)CC3)C2=O)cc1OC (configuration not stated)	-2.7	4.7	0	10	5.3	-1	.	0.6
CCC(=O)NC(c1ccc(Cl)cc1Cl)c1ccc2cccnc2c1O (configuration not stated)	3.5	-4.3	7	67*	.	107*	104*	0.3
C=CCNC(=O)c1onc(CSc2ccccn2)c1C(=O)NCC=C	5.1	2.6	8	-28	-0.4	1	-7	0.1
COc1c(F)c(F)c(C(=O)O)c(Nc2cccc(C)c2)c1F	2.9	1.8	-7	-1	2.1	0	-5	-0.3
Cc1nn(C)c(C(=O)NNC(=S)NC2CCCCC2)c1Cl	-1.6	3.3	-8	-29	2.8	11	7	-1.0
CCCCN(C(=O)C1CCCC1)c1c(N)n(Cc2ccccc2)c(=O)[nH]c1=O	5.3	.	0	.	-1.7	.	-4	0.4
O=C(O)COc1ccc(S(=O)(=O)c2ccc(OCC(=O)O)cc2)cc1	-2.9	1.7	-5	-12	3.8	-3	1	-0.2
CCc1ccc(N2CC(C(=O)OCC(=O)Nc3ccc([N+](=O)[O-])cc3)CC2=O)cc1 (configuration not stated)	1.6	.	7	.	2.4	.	-8	0.4
CC(Oc1cccc(Cl)c1)C(=O)Nc1cc(S(=O)(=O)N2CCOCC2)ccc1N1CCCC1 (configuration not stated)	8.1	?	3	10	.	-3	-2	0.6
COc1ccc(-n2c(SCC(=O)N3CCCCC3C)nnc2-c2cccnc2)cc1 (configuration not stated)	-2.7	0.5	-9	14	4.3	-6	-2	1.2
Cn1c(Cn2c(=O)sc3ccccc32)nnc1SCC(=O)Nc1ccc(Cl)cc1	-0.1	.	-8	.	0.7	.	-9	-0.1
COc1cc(/C=C/c2ccc3cccc(O)c3n2)c(Br)cc1O	-2.2	-5.2	-177	56*	.	15	39	-6.3
COC(=O)CN1C(CN2CCOCC2)=Nc2ccc(Br)cc2C1c1ccccc1 (configuration not stated)	2.5	-5.9	5	-9	5.2	-3	-3	-0.2
Clc1ccc(C2CC(c3cccs3)n3ncnc3N2)c(Cl)c1 (configuration not stated)	-1.2	0.3	-1	-8	0.8	45	-2	-0.2
S=C1Cc2ccccc2N1	.	-0.1	40	60*	81*	63	.	.
C=CCN1CCN(c2ccncc2S(=O)(=O)N2CCCCC2)CC1	2.4	5.1	2	15	.	3	.	-0.3
Cc1oc2cc(O)cc(C)c2c(=O)c1-c1cnn(-c2ccccc2)c1	6.4	0.8	11	11	2.7	-3	5	-0.9
CCNc1nc(NCC)n2c(SCC(=O)Nc3cc(Cl)ccc3OC)nnc2n1	-2.6	-3.1	-9	-1	-2.0	4	.	0.1
CCc1cc2c(=O)c(-c3ccc4c(c3)OCO4)coc2c(CN(C)C)c1O	2.3	-2.1	-1	2	-176	18	5	1.3
Cc1cc(SCC(=O)Nc2ccc3[nH]c(=O)[nH]c3c2)nc2ccccc12	-3.9	.	35	.	5.4	.	-7	-0.2
COCCN=C1Sc2nc3cc4c(cc3cc2CN1CC1CCCO1)OCO4 (configuration not stated)	3.9	.	-7	5	4.0	-13	-2	0.5
CCSc1nnc(NC(=O)C2CC2c2ccccc2)s1 (configuration not stated)	-0.8	-0.2	3	3	3.2	-6	11	-1.3
O=c1cc(-c2ccc(O)c(O)c2)oc2cc(O[C@@H]3O[C@H](CO)[C@@H](O)[C@H](O)[C@H]3O)cc(O)c12	8.3	.	-2	.	5.9	.	6	-6.1
C=CCOC(=O)C(C#N)c1nc2ccccc2nc1N1CCCC1 (configuration not stated)	3.7	2.5	-32	7	0.8	2	2	-0.5
CCOc1ccc(NC(=O)COC(=O)Cn2nc(C)c([N+](=O)[O-])c2C)cc1OCC	5.6	.	-3	.	0.8	.	-4	0.6
COc1ccc(C(=O)/C=C/c2ccc(N3CCCCC3)c([N+](=O)[O-])c2)cc1	-1.2	5.2	2	6	2.8	-1	9	0.7
N#Cc1c(-c2ccco2)nc(SCC(=O)Nc2ccc(S(N)(=O)=O)cc2)[nH]c1=O	-0.7	1.5	.	-17	2.8	-9	0	0.5
CCOC(=O)Cc1csc(NC(=O)CS(=O)(=O)Cc2ccccc2)n1	3.2	-1.7	3	10	2.1	-9	-13	-0.2

Next section:
SMILES	LANA-H2B inh	RanGTP-Imp inh	B2AR ag	T cruzi repl	UCH37 DUB inh	Calb FLC	Beta apoptosis	Bfl-1 A1 inh
Cc1ccc(C2=NS(=O)(=O)N(C)C(C(=O)Nc3cc(C)n(CC(=O)N4CCC(C)CC4)n3)=C2)cc1	-1.5	2.3	-10	-1	6.6	1	-1	-1.9
O=C(NCc1ccccn1)C(=O)NN=C1CCCCCCCCCCC1	4.3	-3.5	1	0	3.2	-10	-6	0.1
CSCCC(NC(=O)c1ccccc1Br)C(=O)NCCCn1nc(C)cc1C (configuration not stated)	0.0	3.2	-7	-1	2.3	1	.	0.8
O=C(COC(=O)c1ccc[nH]c1=O)NC1CCCCCC1	0.6	4.1	-2	-18	-2.0	13	-5	-0.8
COC(=O)c1ccc(NC(=O)C23CC4CC(C2)CC(n2cnc(Cl)n2)(C4)C3)cc1	3.8	-1.5	-3	8	1.0	0	0	-0.1
Cc1ccc(S(=O)(=O)Nc2cc(C(=O)NCCN(C)C)ccc2N2CCCC2)cc1	-0.7	5.9	-5	-9	2.9	34	-3	0.0
CCCC1CCc2[nH]nc(C(=O)NN)c2C1 (configuration not stated)	-0.4	.	-5	.	-2.1	.	1	0.8
Cc1ccc(-c2nnc(OCc3nc4ccccc4n3C)c3ccccc23)cc1	0.6	-2.5	-2	2	1.6	-2	3	-0.3
CC(C)CCN1C(=O)c2cccc3c(N)ccc(c23)C1=O	14*	-302	-261	6	.	1	.	0.7
CCOc1ccc(NC(=O)c2ccc(NC(=O)CSc3nc4ccccc4c(=O)[nH]3)cc2)cc1	1.5	-0.4	17	-21	2.6	18	6	1.2
CCOc1ccc2nc(NC(=O)c3ccc(C)o3)sc2c1	0.5	-2.0	-3	4	-23	8	.	-8.7
CC(C)OC(=O)CSc1nc(Cc2cccs2)nc2ccccc12	-1.2	-1.2	-3	7	4.9	6	-9	0.3
